Screens from PubChem.
Hedgehog cleavage: Drosophila hedgehog isoform A inhibitors, primary screen, biochemical, plate reader, single concentration (AID 588832) | Biochemical plate reader assay, Hedgehog inhibition; active compounds read high | inhibition, % at 30.3 µM | 8,000 tested, under 10 active; in the data active means inhibition from about 57%;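 further: 0% = neutral control wells and 100% = positive control wells; cholesterol-driven self-cleavage of fly hedgehog protein by fluorescence polarization; read one hour after cholesterol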
The depositor's hits bear a star.

SMILES	Hedgehog cleavage
CC(C)c1nnc(NC(=O)c2ccc(N3C(=O)CCC3=O)cc2)s1	-2
COc1ccc(OC)c2sc(NC(=O)C3CC3)nc12	3
COc1ccc2[nH]c3c(c2c1)CCN1C(=O)N([C@@H](C)C(=O)NC2CC2)C(=O)[C@]31C	5
O=Cc1c(Cl)cccc1Cl	7
COc1ccc(-n2nnc3c(=O)n(CC(=O)OCc4ccccc4)cnc32)cc1	1
Cc1c(OCC(=O)N2CCC(C(=O)O)CC2)ccc2c3c(c(=O)oc12)CCC3	7
Cc1ccc(NC(=O)C2C3C=CC4(CN(Cc5cccnc5)C(=O)C24)O3)cc1 (stereo unspecified)	17
O=C(NCc1ccc2c(c1)OCO2)c1cc2c(s1)CSC2	7
C[C@H](CCC(=O)O)[C@H]1CC[C@H]2[C@@H]3[C@H](O)C[C@@H]4C[C@H](O)CC[C@]4(C)[C@H]3C[C@H](O)[C@]12C	-2
O=S(=O)(NCCc1cn2ccccc2n1)c1cccs1	9
CCC(C)OC(=O)c1[nH]c2c(c1C)C(=O)CC(c1ccc(N(C)C)cc1)C2 (stereo unspecified)	15
CC1CCc2nc(NC(=O)C3COc4ccccc4O3)sc2C1 (stereo unspecified)	9
Cc1cccc(NC(=O)CSc2nc(N)c(NC(=O)c3cccs3)c(=O)[nH]2)c1	7
Cc1ccc(CNC(=O)C2CCN(c3nnc(N4CCCC4=O)s3)CC2)cc1	0
COc1cc(OC)c(NC(=O)CS(=O)(=O)Cc2nc(-c3ccc(C)cc3)oc2C)cc1Cl	8
C=C[C@@](C)(O)CC[C@@H]1[C@@]2(C)CCCC(C)(C)[C@@H]2CC[C@@]1(C)O	8
O=C1c2ccccc2C(Nc2ccc(S(=O)(=O)N3CCCCCC3)cc2)N1c1ccccn1 (stereo unspecified)	5
Cc1cc(Nc2c(C)cccc2C)n2nc(C)nc2n1	20
Cn1cc(S(=O)(=O)N2CCCC2)cc1C(=O)NCc1ccc(F)cc1	15
O=C(O)[C@H]1CCCN1C(=O)c1ccccc1N1C(=O)[C@@H]2Cc3c([nH]c4ccccc34)C(c3cccc(Cl)c3)N2C1=O (stereo partly specified)	-2
Cc1ccc(C)c(N2CCN(CC(=O)Nc3ccc4[nH]c(=O)[nH]c4c3)CC2)c1	3
COc1ccc(CN(C(=O)c2oc3cc(C)ccc3c2C)C2CCS(=O)(=O)C2)cc1OC (stereo unspecified)	4
O=C(CN1C(=O)C(c2ccc(F)cc2)=NC12CCCC2)Nc1ccc(F)cc1	8
O=C(Nc1ccc(Cl)cc1)c1cccc(NC2=NC3CS(=O)(=O)CC3S2)c1 (stereo unspecified)	10
O=C(NCCc1ccccc1)C(=O)NCC1OCCN1S(=O)(=O)c1cc(F)ccc1F (stereo unspecified)	4
Cc1cc(C)cc(OCC(O)CN2C(=O)NC(C)(C)C2=O)c1 (stereo unspecified)	2
N#CC1=C2N=C(N)c3ccccc3N2C2=C(C(=O)CCC2)C1c1ccc(Cl)cc1 (stereo unspecified)	28
O=C(CS(=O)(=O)c1cn(Cc2ccc(Cl)cc2)c2ccccc12)N1CCCC1	-17
COc1cc(/C=C2\C(=N)N3N=C(N4CCOCC4)SC3=NC2=O)ccc1OC(=O)c1ccccc1	10
CCOc1ccc(NC(=O)CC2C(=O)N(c3ccccc3)C(=O)N2CCOC)cc1 (stereo unspecified)	7
CC1CCc2nn(CC(=O)NCCCN3CCCC3=O)cc2C1 (stereo unspecified)	12
COc1ccccc1CNC(=O)C1=C(C)C(=O)OC12CCC(C)CC2 (stereo unspecified)	7
CCC(C)NC(=O)c1ccc(CS(=O)(=O)c2ccc(OC)cc2)o1 (stereo unspecified)	4
CC1(C)C=Cc2c(ccc3c2OC[C@@H](c2ccc(O)cc2O)C3)O1	5
CCc1ccc(NC(=O)c2cc(S(=O)(=O)N3CCc4ccccc43)cn2C)cc1	8
O=C(CSc1nc2c(c(=O)n1-c1ccc(Cl)cc1)SCC2)N1CCOCC1	16
COc1ccc(C2CC(c3ccc(Cl)cc3Cl)Nc3nc(N)nn32)cc1OC (stereo unspecified)	13
O=C(C1CCCN(S(=O)(=O)c2cccc3cccnc23)C1)N1CCc2ccccc21 (stereo unspecified)	4
CCOC(=O)C(C)n1cnc2c(nnn2-c2ccc(F)cc2)c1=O (stereo unspecified)	7
CC(C)[C@H](NC(=O)N1CCn2c1nc1ccccc12)C(=O)N[C@@H](Cc1ccccc1)C(=O)O	9
CCc1ccc(Cn2nnc(C(=O)Nc3cccc(C)c3)c2N)cc1	23
CCc1cccc(NC(=O)c2cccc3c2C(=O)N(CC2CCCO2)C3)c1 (stereo unspecified)	4
Cc1cc(O)c(Oc2cc(C)cc(O)c2O)c(O)c1	11
O=C(c1cc(-c2ccccc2O)on1)N1CCc2ccccc2C1	15
CC(NC(=O)c1ccc(Cl)cc1)C(=O)N1CCCCC1 (stereo unspecified)	7

Three records drawn at random from the list so far:
SMILES	Hedgehog cleavage
CCC(C)NC(=O)c1ccc(CS(=O)(=O)c2ccc(OC)cc2)o1 (stereo unspecified)	4
O=C(C1CCCN(S(=O)(=O)c2cccc3cccnc23)C1)N1CCc2ccccc21 (stereo unspecified)	4
CCOC(=O)C(C)n1cnc2c(nnn2-c2ccc(F)cc2)c1=O (stereo unspecified)	7

Other results
SMILES	Hedgehog cleavage
CCCC(=O)NCCc1nc2ccccc2n1CCC	2
Cc1cc(OCC(=O)NCC2CCC(C(=O)O)CC2)c2c(C)c(Cc3ccccc3)c(=O)oc2c1 (stereo unspecified)	3
Cc1cc(Nc2ccccc2F)n2ncnc2n1	12
COc1ccc2c(=O)c(-c3ccccc3)coc2c1	3
CC(C)C[C@H](NC(=O)N1CC(=O)Nc2ccccc21)C(=O)N[C@H](Cc1ccccc1)C(=O)O	-5
CC(=O)N1CCc2cc(S(=O)(=O)NC(C(=O)N3CCN(c4ccccc4F)CC3)C(C)C)ccc21 (stereo unspecified)	4
Cc1ccsc1-c1nc(CSCC(=O)NCc2ccc3c(c2)OCO3)c(C)o1	6
COc1cccc(NS(=O)(=O)c2nc3nc(C)cc(C)n3n2)c1	13
C=CCn1c(SCC(=O)N2CCN(c3ccc(F)cc3)CC2)nnc1-c1ccco1	11
CCC(=O)NNc1nc2c(F)cc(F)cc2s1	5
O=C(Cn1cnc2c(nnn2Cc2ccccc2)c1=O)NCc1ccco1	3
CCOc1ccc(-n2c(SCC(=O)Nc3nccs3)nc3c(c2=O)SCC3)cc1	10
CCc1cc(=O)oc2cc(OCC(=O)N3CCC(C(=O)O)CC3)ccc12	5
CCn1cc(C(=O)NC2CCCCCC2)c(=O)c2cc(S(=O)(=O)N3CCCCC3)ccc21	21
Cc1c(Cc2ccc3c(c2)OCO3)sc(NC(=O)C(C)(C)C)c1C#N	0
COc1cc(OC)c(OC)cc1/C=C1\Oc2cc(OCC(=O)N3Cc4ccccc4C[C@H]3C(=O)O)ccc2C1=O	4
CCCNC(=O)CS(=O)(=O)Cc1nc(-c2cccc(OC)c2)oc1C	-10
COc1cc(C2CC(=O)c3c([nH]c(C(=O)OCCOC(C)C)c3C)C2)cc(OC)c1OC (stereo unspecified)	17
O=C(Nc1ccccc1OC(=O)c1ccccc1)c1ccccc1	-4
CCCc1cc(C(=O)NCc2cccs2)no1	-4
CC1Cn2c(COc3ccccc3)nnc2S1 (stereo unspecified)	17
C[C@H]1O[C@H](O[C@H]2[C@H](O[C@@H]3CC[C@@]4(C)C(CC[C@]5(C)C4CC=C4[C@@H]6CC(C)(C)CC[C@]6(C(=O)O[C@@H]6O[C@H](CO)[C@@H](O)[C@H](O)[C@H]6O)CC[C@]45C)C3(C)C)O[C@H](C(=O)O)[C@@H](O)[C@@H]2O)[C@@H](O)[C@@H](O)[C@@H]1O (stereo partly specified)	8
O=C(Nc1ncc(Br)s1)C(Cc1ccccc1)n1cccc1 (stereo unspecified)	13
COc1cccc(-c2nc(CS(=O)CC(=O)NCc3ccccc3Cl)c(C)o2)c1 (stereo unspecified)	5
O=C(NCc1ccccc1)c1cc(-c2cccc(O)c2)on1	2
COc1ccc(Cl)cc1S(=O)(=O)NCc1nc2nc(C)cc(C)n2n1	14
CCc1nnc(NC(=O)CSc2nccn2-c2cccc(C)c2)s1	5
CC(=O)NC1CCCN(O)C(=O)/C=C(\C)CCOC(=O)C(NC(C)=O)CCCN(O)C(=O)/C=C(\C)CCOC(=O)C(NC(C)=O)CCCN(O)C(=O)/C=C(\C)CCOC1=O (stereo unspecified)	7
COc1cc(-c2cc(=O)c3c(O)cc(O)cc3o2)ccc1O	3
Cc1c(C)c2ccc(OCC(=O)NCCc3c[nH]c4ccccc34)c(C)c2oc1=O	10
COc1cccc(NC(=O)[C@H](Cc2c[nH]c3ccccc23)NC(=O)[C@@H]2Cc3ccccc3CN2)c1	0
CCc1cc(=O)oc2cc(C)cc(OCC(=O)NC(Cc3c[nH]c4ccc(O)cc34)C(=O)O)c12 (stereo unspecified)	9
CCn1cc(S(=O)(=O)CC(=O)N2CCc3ccccc32)c2ccccc21	10
NC(=O)c1ccccc1[N+](=O)[O-]	5
CN(C)C(=O)CSc1nnc(-c2cccnc2)n1-c1ccccc1	17
CC(CCc1ccco1)NC(=O)Cn1ncc2c(=O)oc3ccccc3c21 (stereo unspecified)	4
CCOc1ccccc1CNS(=O)(=O)c1ccc2c(c1)oc(=O)n2C	1
O=c1cc(-c2ccccc2)oc2cc(O)ccc12	0
O=C(NCCc1c[nH]c2ccccc12)C(=O)NCC(c1cccnc1)N1CCN(c2ccccc2)CC1 (stereo unspecified)	-2
NC(=O)CN1CCN(C(=O)NC2CCCCC2)CC1	20
Cc1cc(OCC(=O)N2CCC(C(=O)O)CC2)c2c(C)c(C)c(=O)oc2c1	4
CC(C)Cc1cc(C(=O)N2CCN(C(c3ccccc3)c3ccccc3)CC2)no1	19
COc1cc(Cl)c(NS(=O)(=O)c2cc3[nH]c(=O)c(=O)[nH]c3cc2C)c(OC)c1	15
CCN(C1CCCCC1)S(=O)(=O)c1cn(C)c(=O)n(C)c1=O	5
Cc1[nH]c2ccc(OCc3ccccc3)cc2c1CCN1C(=O)OC(C)(C)C1(C)O (stereo unspecified)	4
O=C(NCCSc1c[nH]c2ccccc12)c1c(F)cccc1F	5
CCC1CCCCN1CCCNC(=O)CCC(=O)N1CC(C)Oc2ccccc21 (stereo unspecified)	7
CCOC(=O)c1ccccc1NC(=O)c1cccc2c1C(=O)N(C1CCN(C(=O)OCC)CC1)C2	-14
CCOC(=O)N1CCC(NC(=O)Cn2c3c(c(-c4ccccc4Cl)cc2=O)CCC3)CC1	1
O=C(OCc1ccccc1)c1ccccc1	5
Cc1oc(-c2ccccc2F)nc1CS(=O)(=O)CC(=O)N1CCOCC1	-5
COc1cc2c(cc1OC)CN(C(=O)CSc1nnc3scc(-c4ccccc4)n13)CC2	5
COc1ccc(C2CC(=O)c3c(O)cc(O)cc3O2)cc1O (stereo unspecified)	7
CCn1c(SCC(=O)Nc2ccc(OC)c(OC)c2)nnc1-c1c[nH]c2ccccc12	13
O=C(CSc1nc2ncccc2[nH]1)NC1CCCC1	7
CC(=O)c1ccc(OCC(O)CN2CCCC(C)C2)cc1 (stereo unspecified)	7
Cc1oc(-c2cccc(Cl)c2)nc1CN1CCC(C(=O)N2CCN(c3ccccn3)CC2)CC1	0
CC(C)[C@H](NC(=O)N1c2ccccc2NC(=O)[C@@H]1C(C)C)C(=O)N1CCC[C@H]1C(=O)O	5
CCOC(=O)c1[nH]c(C)c(C(=O)Nc2ccc(C)c(C)c2)c1C	13
CSCC[C@H](NS(=O)(=O)c1ccc(C)cc1)C(=O)N1CCC(C(=O)N[C@@H](Cc2ccc(O)cc2)C(=O)O)CC1	2

Remaining list, next part
SMILES	Hedgehog cleavage
COc1ccc(Br)cc1C1CC(=O)N2CN(Cc3ccccc3)CSC2=C1C#N (stereo unspecified)	5
COC(=O)Cn1c(CN2CCOCC2)nc2c1c(=O)n(C)c(=O)n2C	9
Cc1cccc(-n2c(CNC(=O)c3ccccc3)nnc2SCC(=O)Nc2nccs2)c1	12
COC(=O)c1[nH]c2cc(OC)c(OC)cc2c1NC(=O)CN1C[C@H]2C[C@@H](C1)c1cccc(=O)n1C2	11
Cc1ccc(C2c3[nH]c4ccccc4c3C[C@H]3C(=O)N(c4ccccc4C(=O)NCCN4CCOCC4)C(=O)N23)cc1 (stereo partly specified)	3
Cc1cc(C(=O)N2CCN(c3ccc(F)cc3)CC2)on1	6
Cc1ccc(C)c(N2CCN(C(=O)C(Cc3ccccc3)n3cccc3)CC2)c1 (stereo unspecified)	5
CCC1CCCCN1Cc1nc2c(c(=O)n(C)c(=O)n2C)n1CCC(C)C (stereo unspecified)	7
CCOc1cccc(N)c1	4
COc1ccc2c(c1OC)C(=O)N1C2SC(C)(C)[C@H]1C(=O)NC1CCCC1 (stereo partly specified)	9
Cc1ccc(CNC(=O)Cc2ccc(NC3=NC4CS(=O)(=O)CC4S3)cc2)cc1 (stereo unspecified)	7
COc1ccc(NC(=O)CSc2nnc(Cn3c(=O)sc4ccccc43)n2C)cc1OC	-2
Cc1cc(=O)oc2c(C)c(OC(C)C(=O)N3CC[C@@]4(O)CCCC[C@H]4C3)ccc12 (stereo partly specified)	8
Cc1cc(=O)oc2c3c(cc(OCC(=O)NCc4cccnc4)c12)OC(C)(C)CC3	3

Taken from above (seven entries):
SMILES	Hedgehog cleavage
CCC1CCCCN1Cc1nc2c(c(=O)n(C)c(=O)n2C)n1CCC(C)C (stereo unspecified)	7
CCOc1cccc(N)c1	4
COc1ccc2c(c1OC)C(=O)N1C2SC(C)(C)[C@H]1C(=O)NC1CCCC1 (stereo partly specified)	9
Cc1ccc(CNC(=O)Cc2ccc(NC3=NC4CS(=O)(=O)CC4S3)cc2)cc1 (stereo unspecified)	7
COc1ccc(NC(=O)CSc2nnc(Cn3c(=O)sc4ccccc43)n2C)cc1OC	-2
Cc1cc(=O)oc2c(C)c(OC(C)C(=O)N3CC[C@@]4(O)CCCC[C@H]4C3)ccc12 (stereo partly specified)	8
Cc1cc(=O)oc2c3c(cc(OCC(=O)NCc4cccnc4)c12)OC(C)(C)CC3	3

Not all compounds are listed; the hit share may differ from the screen's.
